Screens as filed in PubChem.
TRPML1 agonist: activates the human TRPML1 channel; activation, % (test concentration not listed); Q9GZU1; TRPML1-expressing cells, Ca2+ dye fluorescence, FDSS; host cell line not named in the record; reference of the full effect not given here; 410,000 tested, 0.12% active; in the data active = activation above about 50%; inconclusive = about 30% to 50%; inactive = below about 30%; note: 0% is about no effect; the text of the record puts the active cut at 80%
Target sequence (Q9GZU1 whole entry, looked up): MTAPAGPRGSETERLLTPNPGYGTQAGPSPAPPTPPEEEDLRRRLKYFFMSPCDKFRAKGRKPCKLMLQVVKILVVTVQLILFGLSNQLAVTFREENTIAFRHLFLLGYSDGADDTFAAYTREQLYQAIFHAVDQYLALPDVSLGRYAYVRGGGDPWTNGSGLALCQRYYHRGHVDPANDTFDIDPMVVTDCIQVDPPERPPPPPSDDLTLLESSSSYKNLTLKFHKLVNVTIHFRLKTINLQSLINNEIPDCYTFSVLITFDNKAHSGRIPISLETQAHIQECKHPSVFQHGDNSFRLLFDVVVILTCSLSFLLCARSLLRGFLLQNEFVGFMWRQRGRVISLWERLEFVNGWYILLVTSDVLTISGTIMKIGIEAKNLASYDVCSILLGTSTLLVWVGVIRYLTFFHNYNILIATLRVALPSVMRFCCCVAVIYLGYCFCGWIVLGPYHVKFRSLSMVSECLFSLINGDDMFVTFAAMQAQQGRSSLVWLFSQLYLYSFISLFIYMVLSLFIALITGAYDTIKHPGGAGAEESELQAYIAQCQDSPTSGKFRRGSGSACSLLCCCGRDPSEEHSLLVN
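Tet-induced TRPML1-DL cells, 1,500 per well, cultured overnight, were loaded with a no-wash Ca2+ dye for 45–90 min. Calcium fluorescence was recorded on the FDSS for 110 s after compound addition, before the EC80 agonist (4 uM 54-4) was added.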
CtBP-E1A blk: blocks the CtBP interaction with E1A; 340,000 tested, 0.49% active; activity change, % (test concentration not listed); AlphaScreen GST-E1A/His-CtBP binding, 1536-well; hits give low values; control for the full effect not named in the record; in the data active means activity change below about -65%; inconclusive means about -30% to -65%; inactive means above about -30%; note: % is set by controls: 0 for no effect and ±100 for the full control effect; compound concentration not given in the record
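Steps: dispense buffer (Tris pH 8.0, NaCl 300 mM, TCEP 1 mM, BSA, Tween 20); add 5X protein mix (GST-E1A, His-CtBP, 125 nM each); pin 23 nL compound; 2 h at 37 °C, dark; add 5X beads (50 ug/mL); 1 h; read.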
D2 agonist: human D2 receptor agonism in beta-arrestin assay | AID 624465 | P14416 | 360,000 tested, 0.084% active | DiscoveRx PathHunter D2 beta-arrestin, luminescence, 90 min; 100% = 57 uM dopamine signal | activation, % (test concentration not listed); in the data active = activation above about 40%; inconclusive = about 15% to 40%; inactive = below about 15%; note: compound concentration not given in the record; the text of the record calls up to 30% inactive
Target sequence (P14416 whole entry, looked up): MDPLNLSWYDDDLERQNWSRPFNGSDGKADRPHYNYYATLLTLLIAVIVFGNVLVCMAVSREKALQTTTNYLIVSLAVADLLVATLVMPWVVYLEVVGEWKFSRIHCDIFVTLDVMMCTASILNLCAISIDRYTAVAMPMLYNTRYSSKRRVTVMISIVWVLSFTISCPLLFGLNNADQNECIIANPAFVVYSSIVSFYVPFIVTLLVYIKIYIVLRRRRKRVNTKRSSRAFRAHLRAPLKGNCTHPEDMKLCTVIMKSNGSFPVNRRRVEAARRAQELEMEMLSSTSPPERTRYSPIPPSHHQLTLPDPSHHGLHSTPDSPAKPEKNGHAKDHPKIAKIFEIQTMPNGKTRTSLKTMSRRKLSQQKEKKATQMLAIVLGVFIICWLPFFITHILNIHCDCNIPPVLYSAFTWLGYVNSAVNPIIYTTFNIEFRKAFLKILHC
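Agonist mode: compounds alone added to overnight-plated D2 PathHunter cells for 90 min at 37 C, with 57 uM final dopamine (EC100) defining full response. Beta-arrestin recruitment detected by chemiluminescent reagent, read after 1 h at ambient temperature.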
D2 potentiator: positive allosteric modulators of human D2 dopamine receptor | P14416 | DiscoveRx D2 beta-arrestin cells, luminescence, 90 min; 100% = 57 uM dopamine signal | potentiation, % (no concentration beside the values) | AID 624464 | 360,000 tested, 0.23% active; active = potentiation of 50% or more; inconclusive = 30% to 50%; inactive = 30% or less;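 note: compound concentration not given in the record; tested on top of an EC20 dose of dopamine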
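D2 cells co-treated with compound plus 50 nM dopamine (EC20) for 90 min at 37 deg C to detect potentiation. Beta-arrestin recruitment was read as enzyme-fragment luminescence after 1 h at ambient temperature. Full response was set by 57 uM dopamine.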
PINK1 expr mod: changes PINK1 expression; PINK1 immunofluorescence, high-content cytometry, 24 h; Potency, µM (highest dose often 76.6 µM), inactives show top-dose activation (PINK1 increase), most hits filed as activators; 410,000 tested, 0.2% active; active = well fitted activation curve with a large enough effect; inconclusive = small, poorly fitted or top-dose-only effect; inactive = flat fitted curve, though single readings scatter; cell line not stated here;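 note: potency is the fitted concentration of half-maximal effect; % of control where 0% means no effect; nearly all actives have a fitted effect of over 65% in size; a mitochondrial uncoupler was the plate control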
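Decision-based qHTS: stable cells, 24 h exposure to five compound concentrations, CCCP as control. Fixed cells stained for PINK1 plus nuclear, mitochondrial and cell markers, cytometer read.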
Six1-Eya2 blk: inhibitors of human Six1/Eya2 interaction; 360,000 tested, 0.56% active; AID 651725; Q15475+O00167; activity change, % (concentration not given with the values); AlphaScreen GST-Six1/His-Eya2 binding, biochemical; hits give low values; control for the full effect not named in the record; in the data active = activity change below about -65%; inconclusive = about -30% to -65%; inactive = above about -30%; note: % is set by controls: 0 for no effect and ±100 for the full control effect
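AlphaScreen with GST-Six1 and His-Eya2 (5X mix: 250 nM and 500 nM), glutathione donor and nickel acceptor beads; buffer 50 mM Tris pH 8.0, 300 mM NaCl, 1 mM TCEP; 1 h at 37 C in the dark.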
Starred values were filed as active, the others as inactive; ? = inconclusive; nt = no result given; [ ] = another dose, or the depositor's remark.

SMILES	TRPML1 agonist	CtBP-E1A blk	D2 agonist	D2 potentiator	PINK1 expr mod	Six1-Eya2 blk
CN(C)S(=O)(=O)Nc1ccccn1	-0.3	nt	0.2	-6	2.6%	-12
Clc1ccc(OCc2nnc3n2CCCCC3)c(Cl)c1	1.0	nt	-4.5	-9	-0.3%	3
O=C(NCC(c1cccs1)N1CCOCC1)c1ccc(Cl)c(S(=O)(=O)N2CCOCC2)c1 (stereo unspecified)	-0.6	3	-1.5	-10	1.1%	12
Cc1ccc(S(=O)(=O)NN=C2CC(C)(C)OC2(C)C)cc1	-0.4	4	-2.6	1	0.1%	2
COCCNC(=O)/C(C#N)=C/c1c(N2CCCCCC2)nc2ccccn2c1=O	-1.1	0	0.9	-3	-0.2%	-1
CCc1ccccc1NC(=O)N[C@@H](C)C(=O)OC	0.0	66	-1.7	-10	0.9%[38.3 µM]	22
COc1ccc(NC(=O)c2cc(C3CCCCN3C(=O)Cc3ccc(N(C)C)cc3)on2)c(C)c1 (stereo unspecified)	-0.3	?	2.8	-12	-1.3%	-25
O=C(CCSCc1ccccc1F)NCc1cccnc1	-0.1	-16	-2.1	-9	-0.4%	-5
Cn1c(CNC(=O)CCNC(=O)c2ccc(Br)cc2)cc(=O)n(C)c1=O	0.4	-6	-2.1	-13	0.5%	6
Cc1nn(CC(=O)NNC(=S)Nc2ccccc2)c(C)c1[N+](=O)[O-]	2.0	2	0.2	-11	1.5%[38.3 µM]	-1
CCCC1(c2ccccc2)NC(=O)N(CC(=O)Nc2cc(OC)cc(OC)c2)C1=O (stereo unspecified)	1.1	0	2.6	0	-0.1%	-4
CCOc1cc(CNCCO)cc(Br)c1OCc1ccc(Cl)cc1	0.0	1	-5.3	-36	-2.0%	3
CC(NC(=O)C1CCN(c2nnc(-n3cccc3)s2)CC1)C12CC3CC(CC(C3)C1)C2 (stereo unspecified)	-1.0	6	-4.3	18	0.6%	-8
CCOc1cccc(C(=O)N2CCCN(C)CC2)c1	nt	nt	2.6	10	0.2%	1
CC(=O)CSc1nnc(-c2ccc3c(c2)OCO3)o1	-0.1	4	-3.2	-9	-0.5%	-1
O=C(Cn1ccc([N+](=O)[O-])n1)NCc1ccccc1	-0.3	10	-3.4	-1	5.7%	0
CN(C)CCCN1CC(=O)N2[C@@H](Cc3c([nH]c4ccccc34)C2(C)C)C1=O	0.3	2	-1.3	-6	-1.4%	0
COCCCNC(=S)Nc1cccc(S(=O)(=O)NC2=NCCC2)c1	0.7	4	-1.1	-3	-1.5%	4
CSc1ccccc1NC(=O)COc1ccccc1Cl	-0.8	20	-3.8	-19	0.4%	13
Cc1ccc(NC(=O)Nc2ccc3c(c2)CCC3)c(C)c1	0.0	2	-0.9	-12	3.8%	5
CCCCn1c(N)c(N(CCOC)C(=O)CCCn2c(=O)oc3ccccc32)c(=O)[nH]c1=O	-0.8	11	-0.7	-5	2.1%	-8
Cc1c(/C=N\NC(=O)C2COc3ccccc3O2)c2ccccc2n1C (stereo unspecified)	2.6	-8	3.2	-13	1.0%	-22
Cc1ccc(NC(=O)CSc2nnc(C3CC3)n2C)cc1S(=O)(=O)N1CCCCC1	-0.5	nt	-1.1	-3	2.9%	-7
O=C1N=c2ccc([N+](=O)[O-])cc2=C1c1sc(=O)[nH]c1O	0.3	-17	3.3	0	1.1%	-28
COc1cccc(C(C)(O)c2nc(-c3cccc(C(F)(F)F)c3)cs2)c1 (stereo unspecified)	-0.4	8	9.9	-8	5.0%	10
CC(c1ccccc1)n1c(-c2ccc(C(C)(C)C)cc2)n[nH]c1=S (stereo unspecified)	0.5	-6	9.1	-1	5.0%	-7
N=c1c(C(=O)NCc2ccco2)cc2c(=O)n3ccccc3nc2n1Cc1ccc(Cl)cc1	1.9	6	-4.7	-22	-2.7%	2
COc1ccccc1CN(CC(=O)NCc1ccc2c(c1)OCO2)C(=O)c1ccc2c(c1)OCCO2	-0.1	-9	-4.6	-3	-1.8%	-10
Cc1cccc(NC(=O)Nc2ccccn2)c1C	nt	-10	1.8	-9	4.9%	0
CCOc1ccc(NS(=O)(=O)c2ccc(SC)cc2)cc1	1.4	-4	-3.9	-14	0.4%	-3
COc1ccc(OC)c(NS(=O)(=O)c2cc(OC)ccc2OC)c1	0.8	10	-2.0	-1	1.2%[38.3 µM]	-5
COc1ccc(N2CCN(CCNC(=O)Nc3ccc(Cl)cc3)CC2)cc1	0.6	-12	-5.7	-16	0.0%[38.3 µM]	-6
CN(C)CCSc1nnc2sc3ccccc3n12	0.1	-1	-3.6	-18	-1.7%	-1
CNc1ncnc2c1ncn2[C@H]1CN(CCOC)C[C@@H](CO)O1	2.5	34	-3.9	2	-0.5%	24
N#Cc1c(SCC(=O)OCc2ccccc2)nsc1SCC(=O)OCc1ccccc1	2.7	33	-0.3	-1	1.0%	20
COc1ccc(N(C)S(=O)(=O)c2cccc(C(=O)Nc3ccc(N4CCOCC4)cc3)c2)cc1	0.6	-6	1.4	2	4.2%	-19
CC(C)C(=O)NC(CC(=O)O)c1ccccc1 (stereo unspecified)	0.4	8	-3.4	0	0.7%	-3
CC(C)CN1C(=O)c2ccc(C(=O)NCc3ccccn3)cc2C1=O	1.1	-6	-2.4	-6	0.4%	-4
COc1cccc(-c2nc(-c3ccccn3)no2)c1	1.5	1	-1.3	4	0.3%	3
Cc1nn(CCC#N)c(C)c1Oc1ccccc1O	1.0	13	-0.8	-3	0.4%	7
CN1C(=O)S/C(=C\c2ccc(-n3cncn3)cc2)C1=O	-0.1	nt	8.5	4	0.8%	10
COc1ccc(-c2cc(C(=O)NCCCn3ccnc3)c3ccccc3n2)c(OC)c1	-0.8	-3	-2.9	-19	1.8%	-16
O=C(O)c1cc([N+](=O)[O-])ccc1NCCc1ccccc1	-0.5	-2	-2.6	-10	-0.9%	-5
O=C(NC1(C(F)(F)F)OCCO1)c1ccc(F)cc1	0.7	nt	-0.7	-6	0.3%	11
Cc1ccc(CN(C(=O)Cc2cccs2)C(C(=O)NC2CCCC2)c2ccncc2)cc1 (stereo unspecified)	0.3	-5	-3.2	-4	0.2%	2
O=C(CN(C(=O)CNC(=O)c1ccco1)c1ccc(Cl)c(Cl)c1)NC1CCCCC1	3.8	-7	-4.2	-8	-0.7%	-3
Cn1c(CN2CCN(C(=O)c3ccco3)CC2)nc2cc([N+](=O)[O-])ccc21	0.6	-3	-1.8	-3	-3.7%	-6
COCCn1nnnc1CN1CCC(O)(c2cccc(C(F)(F)F)c2)CC1	0.2	11	-0.4	1	nt	2
CCN(C(=O)CSc1nnc(-c2ccncc2)n1C)C1CCS(=O)(=O)C1 (stereo unspecified)	-0.8	3	-3.0	-6	0.4%	2
CC(=O)Nc1sc(C)c(C)c1C(=O)OCC(=O)NCc1ccc(F)cc1	0.8	0	-1.4	-1	-1.4%	-1
CCOC(=O)C1=C(c2ccccc2)NC(=S)NC1c1cccc([N+](=O)[O-])c1 (stereo unspecified)	0.0	0	-1.7	-2	4.6%	-7
COc1ccc(-c2c(C)nc3c(-c4ccsc4)cnn3c2N)cc1	0.6	nt	-4.4	-4	4.7%	14
Cn1nc(NC(=O)CC23CC4CC(CC(C4)C2)C3)c2c(F)cccc21	-0.2	0	-1.1	-4	3.7%	10
CCCCCN(C(=O)CCC(=O)OC(C)C(=O)c1ccccc1)c1c(N)n(CCCC)c(=O)[nH]c1=O (stereo unspecified)	0.0	3	-6.8	-33	0.9%	0
O=C(c1cnn2c(C(F)F)cc(-c3ccccc3)nc12)N1CCN2CCCC2C1 (stereo unspecified)	-1.1	1	-4.1	-43	-1.1%	5
COc1cccc(NC(=O)Cn2nc(Cc3cccnc3)c3ccccc3c2=O)c1	0.1	1	-5.6	-7	0.6%	2
C=CCNC(=O)C1CC=CCC1C(=O)O (stereo unspecified)	0.1	5	0.7	-7	-0.3%	5
CCC1NC(C(=O)O)Cc2c1[nH]c1ccccc21 (stereo unspecified)	1.0	2	5.3	-5	-0.1%	-11
COc1ccc(CNC(=O)C(c2ccc(O)cc2)N(Cc2ccco2)C(=O)c2snc(C(N)=O)c2N)cc1 (stereo unspecified)	0.8	0	3.6	27	-0.4%	-5
Cc1ccc(S(=O)(=O)N2CCOCC2)cc1C(=O)Nc1cccc(S(=O)(=O)N2CCCC2)c1	-0.8	-16	3.9	4	4.3%	-2

Two entries picked at random from the list so far:
SMILES	TRPML1 agonist	CtBP-E1A blk	D2 agonist	D2 potentiator	PINK1 expr mod	Six1-Eya2 blk
CCN(C(=O)CSc1nnc(-c2ccncc2)n1C)C1CCS(=O)(=O)C1 (stereo unspecified)	-0.8	3	-3.0	-6	0.4%	2
CCCCCN(C(=O)CCC(=O)OC(C)C(=O)c1ccccc1)c1c(N)n(CCCC)c(=O)[nH]c1=O (stereo unspecified)	0.0	3	-6.8	-33	0.9%	0

3 entries from above, field by field:
> Cc1c(/C=N\NC(=O)C2COc3ccccc3O2)c2ccccc2n1C (stereo unspecified)
  TRPML1 agonist = 2.6
  CtBP-E1A blk = -8
  D2 agonist = 3.2
  D2 potentiator = -13
  PINK1 expr mod = 1.0%
  Six1-Eya2 blk = -22
> Cc1nn(CC(=O)NNC(=S)Nc2ccccc2)c(C)c1[N+](=O)[O-]
  TRPML1 agonist = 2.0
  CtBP-E1A blk = 2
  D2 agonist = 0.2
  D2 potentiator = -11
  PINK1 expr mod = 1.5%[38.3 µM]
  Six1-Eya2 blk = -1
> CC(C)C(=O)NC(CC(=O)O)c1ccccc1 (stereo unspecified)
  TRPML1 agonist = 0.4
  CtBP-E1A blk = 8
  D2 agonist = -3.4
  D2 potentiator = 0
  PINK1 expr mod = 0.7%
  Six1-Eya2 blk = -3

Following part
SMILES	TRPML1 agonist	CtBP-E1A blk	D2 agonist	D2 potentiator	PINK1 expr mod	Six1-Eya2 blk
Cc1ccc2nc(C(C)O)[nH]c2c1 (stereo unspecified)	-0.7	4	-1.0	-9	-2.6%	1
O=C1CCCc2ccccc2N1Cc1ccc(Cl)cc1Cl	0.0	3	-0.2	-19	7.9%	6
CCn1cc(CN2CCCC(C(=O)Nc3cccc(-n4cccn4)c3)C2)cn1 (stereo unspecified)	-1.0	1	-4.0	-47	0.1%	-4
Cc1occc1-c1nnc(SCC(=O)c2ccccc2)n1CC1CCCO1 (stereo unspecified)	-0.4	0	-5.0	-1	2.0%	-1
O=C1/C(=C/c2ccc(F)c(F)c2)CSc2sccc21	-0.3	12	-1.9	-3	4.3%	9
CC(C)NC(=O)CCn1ccc2cc(S(=O)(=O)N3CCCC3)ccc21	-0.2	8	-1.4	-8	3.8%	2
COc1ccccc1NC(=O)C(C)OC(=O)CCC1CCCCC1 (stereo unspecified)	1.0	19	0.3	-1	-1.1%	34
COc1ccc(C2C(C(=O)OCC(=O)NC(C)(C)C)CCC(=O)N2c2ccc(C)cc2)cc1OC (stereo unspecified)	-0.4	2	-4.1	-4	1.2%[38.3 µM]	4
CC(C)c1ccc(N)c(S(=O)(=O)O)c1	nt	-4	-4.7	-9	-0.7%	4
CC(NC(=O)CCNC(=O)c1ccccc1Cl)c1ccc(-n2ccnc2)cc1 (stereo unspecified)	1.1	-1	-0.8	-1	1.6%	1
CC(C)Oc1ccc(F)cc1-c1cc(C(=O)Nc2ccc(C(C)(C)C)cc2)[nH]n1	1.0	3	-3.2	0	?	-2
CCN(CC(=O)Nc1cc(Cl)ccc1C)C(=O)c1ccc2c(=O)n3c(nc2c1)CCC3	-0.2	?	-2.2	-34	-1.2%	?
